Screens from PubChem.
miR-21 FLuc: raises the signal of a miR-21 reporter; HeLa miR-21 FLuc reporter, luciferase, 48 h; Potency, µM (top dose mostly 38.3 µM), inactives show top-dose reporter change, positive = more light; 340,000 tested, under 10 active; AID 2288; active = well fitted rising curve with a large enough effect; inconclusive = small, poorly fitted or top-dose-only effect; inactive = no such curve, though single readings can be large or run the other way;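 note: % of control where 0% means no effect; miR-21 action dims this reporter so a rising signal means less miR-21 action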
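HeLa miR-21-FLuc reporter line, endogenous miR-21; 2000 cells/well in DMEM/10% FBS; compound titration up to ~40uM final, 48 h, 37 degree Celsius; luciferase detection reagent, 15 min lysis, CCD luminescence.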
Rango dissoc inh: inhibition of RanGTP-driven Rango-importin beta dissociation. hit rate 0.071% among 340,000. Potency, µM (doses to about 46.1 µM), inactives show at the highest dose activity change, negative = inhibition. Biochemical FRET Rango-importin beta, RanGTP-induced dissociation. O95149+P62826. AID 540253; active means falling FRET ratio curve, often poorly fitted, with flat reads before Ran was added; inconclusive means other falling curves, or compound fluorescence or quenching; inactive means flat or rising ratio curve;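 note: potency is the fitted concentration of half-maximal effect; % of control where 0% means no effect; nearly all actives have a fitted effect of over 45% in size; -100% = wells without RanGTP and RCC1; the record marks most hits as doubtful in a second field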
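Compounds sat 5 min at room temperature with 0.1 uM Rango biosensor plus 0.25 uM importin beta, then FRET pre-read. RanGTP-RCC1 (0.6 uM Ran, 2mM GTP, 0.2 uM RCC1) added for 45 min, and the CFP/YFP post-read measured blocked complex dissociation.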
Rango complex inh: inhibitors of Rango-importin beta complex formation. Q14974. Rango CFP/YFP FRET sensor + importin beta, 45 min. Potency, µM (highest dose often 92.2 µM), without a hit: at the highest dose inhibition of complex formation. hit rate 0.031% among 340,000; active = rising FRET ratio curve, often small or poorly fitted; inconclusive = mostly compound fluorescence or quenching in the first reads; inactive = flat curves in all reads;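 note: potency is the fitted concentration of half-maximal effect; 0% = DMSO wells and 100% = buffer wells lacking importin beta; nearly all actives have a fitted effect of over 15% in size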
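FRET biosensor (snurportin 1 IBB flanked by EYFP and cerulean), 50 nM, with compound 5 min, then 0.125 microM importin beta in PBS, 1 mM DTT, 0.02% Tween-20, 0.1% BSA. CFP/YFP ratio read after 45 min at room temperature; pre-read flags interference.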
GLA inh pH 4.5: alpha-galactosidase A (human) inhibition, pH 4.5; P06280; purified enzyme, 4-MU-alpha-Gal fluorescence, pH 4.5; activity change, negative = inhibition, % at 105 µM; 230,000 tested, under 10 active; AID 1467; inconclusive = small, poorly fitted or top-dose-only inhibition, or a rising curve; inactive = flat fitted curve, though single readings scatter; no compound was filed as active;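 note: 0% = full activity with enzyme and -100% = basal without enzyme; dose as in the result columns while the protocol names 77 µM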
Target sequence (P06280 whole entry, looked up): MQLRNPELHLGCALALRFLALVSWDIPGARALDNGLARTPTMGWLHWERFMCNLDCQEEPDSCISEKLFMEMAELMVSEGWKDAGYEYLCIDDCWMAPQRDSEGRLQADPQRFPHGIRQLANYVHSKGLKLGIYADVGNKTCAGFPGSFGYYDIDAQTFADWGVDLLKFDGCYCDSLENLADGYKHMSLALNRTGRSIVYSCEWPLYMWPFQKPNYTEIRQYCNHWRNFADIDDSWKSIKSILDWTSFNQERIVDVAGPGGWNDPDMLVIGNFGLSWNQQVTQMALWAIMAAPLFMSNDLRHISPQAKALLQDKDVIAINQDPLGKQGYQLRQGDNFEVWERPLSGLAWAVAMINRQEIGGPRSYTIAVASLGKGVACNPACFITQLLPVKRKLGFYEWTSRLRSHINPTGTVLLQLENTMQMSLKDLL
An asterisk follows results filed as active; ? = inconclusive; . = no result given. An excerpt (hit frequency here may not be typical).

SMILES	miR-21 FLuc	Rango dissoc inh	Rango complex inh	GLA inh pH 4.5
Nc1nnc(SCC(=O)NNC(=O)c2ccc(Cl)cc2)s1	.	1%	-3.9%	.
C=CCn1c(SCc2n[nH]c(=S)n2-c2ccccc2)nnc1-c1ccccc1	-2%	21%	4.1%	9
NC(=S)Nc1nc2ccccc2[nH]c1=O	-2%	.	.	2
CCOC(=O)N1CCN(C(=O)CCN2C(=O)/C(=C\c3cccc(OC)c3)SC2=S)CC1	-4%	-3%	-1.6%	.
COc1ccc(/C=N/NC(=O)c2[nH]c3ccc(Br)cc3c2-c2ccccc2)c(C(=O)O)c1OC	24%	22%	2.7%	-2
CCn1cc(C(=O)Nc2ccccc2C(=O)OC)c(=O)c2ccc(C)nc21	-31%	.	.	4
Cc1cc(C)c(C(=O)c2ccc(C(=O)NC(C)(C)C)cc2)c(C)c1	0%	-4%	-4.3%	0
CC(OC(=O)c1ccc(F)cc1)C(=O)Nc1nc(-c2cccc([N+](=O)[O-])c2)cs1 (centres undefined)	-13%	-7%	0.5%	-2
CCCn1nnc(NC(=O)COc2ccccc2Cl)n1	-24%	-11%	2.4%	2
CC(C)(C)c1ccc(-n2ncc3c2CCCC3NC(=O)CN2CCCC2=O)cc1 (centres undefined)	10%	12%	4.2%	.
O=C1NC(c2ccc(Br)cc2)=N/C1=C/c1ccco1	-66%	?	?	0
O=[N+]([O-])c1cccc(NC(=S)N2CCN(c3ccccn3)CC2)c1	5%	11%	-3.6%	.
COC(=O)Cn1c(-c2ccc(OC)cc2)c(-c2ccc(OC)cc2)nnc1=O	-1%	5%	-0.4%	.
O=C(NCc1cccnc1)C(=O)NCC1OCCN1S(=O)(=O)c1cc(F)ccc1F (centres undefined)	3%	0%	6.5%	0
O=C(CNC(=O)c1ccc(Br)cc1)Nc1ccc2c(c1)CCC2	.	16%	-0.5%	.
O=C(N/N=C\c1c[nH]c2ccccc12)c1ccc(O)cc1	-18%	10%	7.0%	.
CN(C)c1ccnc2sc3c(=O)n(-c4ccccc4)cnc3c12	1%	19%	-4.1%	-9
Cc1cc(C)c2c3c(sc2n1)C(=O)N(c1ccccc1)CC(=O)N3	-10%	-15%	-3.5%	-4
Cc1ccc(C(C)C)c(OCCCn2ccnc2C)c1	8%	30%	-1.7%	.
O=C(c1ccc(Br)cc1)N1CCCC(c2nc(-c3cccs3)no2)C1 (centres undefined)	12%	0%	-0.9%	-21

An excerpt from above in order of the GLA inh pH 4.5 value, ascending:
SMILES	miR-21 FLuc	Rango dissoc inh	Rango complex inh	GLA inh pH 4.5
CN(C)c1ccnc2sc3c(=O)n(-c4ccccc4)cnc3c12	1%	19%	-4.1%	-9
COc1ccc(/C=N/NC(=O)c2[nH]c3ccc(Br)cc3c2-c2ccccc2)c(C(=O)O)c1OC	24%	22%	2.7%	-2
CCn1cc(C(=O)Nc2ccccc2C(=O)OC)c(=O)c2ccc(C)nc21	-31%	.	.	4

(listing goes on)
SMILES	miR-21 FLuc	Rango dissoc inh	Rango complex inh	GLA inh pH 4.5
COc1ccc2c(c1)n([O-])c1c([n+]2=O)CCC1	1%	0%	1.9%	4
O=C1OC(c2ccc(Cl)cc2)=C/C1=C/c1cccnc1	-3%	-5%	-1.4%	.
CC(C)c1ccc(NC(=O)c2cccc(NC3=NC4CS(=O)(=O)CC4S3)c2)cc1 (centres undefined)	-23%	24%	0.1%	.
O=C(O)/C(=C/c1cccnc1)NC(=O)c1ccccc1	-1%	12%	5.3%	5
CCN(c1ccc(C)cc1C)S(=O)(=O)c1nnc(NC(=O)c2ccco2)s1	2%	-9%	-3.4%	.
C/C(N)=C(/C#N)C(=O)CSc1nc2scc(-c3ccccc3)c2c(=O)n1C	-3%	-6%	-1.9%	-7
CCOC(=O)c1cc(-c2ccc(N3CCOCC3)cc2)nn1-c1ccccc1	-1%	-23%	-1.6%	-5
CS(=O)(=O)N1CCN(C(=O)c2csc3ccccc23)CC1	0%	6%	9.8%	0
CCCS(=O)(=O)N1CCN(C(=O)c2cccc(OC)c2)CC1	3%	7%	4.7%	10
CN(c1ccccc1)S(=O)(=O)c1ccccc1Br	.	23%	-2.4%	.
Cc1ccc(NC(=O)CCN2CCc3ccccc3C2)cc1	-9%	1%	-2.9%	1
CC12CCCc3c(O)cc(=O)n(c31)-c1ccccc12 (centres undefined)	-5%	-6%	-0.3%	3
CCN(CC)CCNC(=O)c1cccc(NC(=O)C(=O)c2cc(Br)ccc2NC(C)=O)c1	-4%	2%	-1.6%	2
COc1ccc(CCn2c(N)c(C#N)c3nc4ccccc4nc32)cc1OC	-1%	?	?	-5
C=CCc1c(C)nc(-c2ccccc2)nc1Nc1ccc(O)cc1	13%	-9%	-1.5%	-3
CN1CCN(S(=O)(=O)c2cccc(C(=O)Nc3sc4c(c3C(N)=O)CCCC4)c2)CC1	-5%	18%	3.8%	-1
Cc1nc(CSc2ccccc2)cc(=O)[nH]1	-6%	-6%	-3.6%	1
COC(=O)/C(=C\Nc1ccccc1N)c1ncc(C(F)(F)F)cc1Cl	-51%	-1%	-1.2%	8
COc1ccc(N(CC(=O)Nc2cc(C)ccc2OC)S(=O)(=O)c2c(C)noc2C)cc1	19%	11%	-2.5%	-9
Cc1ccc(Oc2nc(CN3CCOCC3)nc3sc4c(c23)CCC(C)C4)cc1 (centres undefined)	-4%	-10%	3.3%	-9

Complete entries from above. Order of screens: miR-21 FLuc, Rango dissoc inh, Rango complex inh, GLA inh pH 4.5
`Cc1nc(CSc2ccccc2)cc(=O)[nH]1` is listed as -6%, -6%, -3.6%, 1
`CC12CCCc3c(O)cc(=O)n(c31)-c1ccccc12` (centres undefined) is listed as -5%, -6%, -0.3%, 3
`Cc1ccc(Oc2nc(CN3CCOCC3)nc3sc4c(c23)CCC(C)C4)cc1` (centres undefined) is listed as -4%, -10%, 3.3%, -9
`CN1CCN(S(=O)(=O)c2cccc(C(=O)Nc3sc4c(c3C(N)=O)CCCC4)c2)CC1` is listed as -5%, 18%, 3.8%, -1

Following part.
SMILES	miR-21 FLuc	Rango dissoc inh	Rango complex inh	GLA inh pH 4.5
CC(O/N=C(\N)c1ccccc1)C(=O)Nc1cccc(C(F)(F)F)c1 (centres undefined)	.	17%	6.9%	.
CCOC(=O)NC(NCc1cccc(C(F)(F)F)c1)(C(F)(F)F)C(F)(F)F	-2%	-4%	1.6%	-13
Cn1c(C(C(=O)NCC2CCCO2)N(C(=O)Cn2nnc3ccccc32)C2CCCCC2)nc2ccccc21 (centres undefined)	-2%	-8%	1.8%	4
CC(C)C1=NN(C(=O)c2ccccc2)C(O)(C(C)(C)C)C1 (centres undefined)	-25%	12%	1.2%	0
O=C(NCc1ccccc1)C1=C[C@H](C2CC2)C[C@H](OCCCCO)O1	-2%	18%	0.2%	2
COCCc1nnc(NC(=O)C(C)C)s1	4%	1%	2.9%	3
Cn1c(N)c(C(=O)NCc2ccccc2)sc1=S	-7%	-17%	?	-9
Cn1c(=S)c2[nH]c(SCc3cccnc3)nc2n(C)c1=O	.	2%	-0.6%	.
Nc1ccccc1C#Cc1ccc2[nH]ccc2c1	.	15%	-4.8%	.
CS(=O)(=O)c1ccc(-c2cccc(NC(=O)COc3ccccc3)c2)nn1	4%	1%	1.6%	.
c1ccc2sc(-c3ccc4c(c3)OCO4)nc2c1	6%	11%	0.0%	6
CN(C)c1ccc(C2Nc3ccccc3C(=O)N2NS(C)(=O)=O)cc1 (centres undefined)	-19%	?	-0.6%	.
CC1S/C(=N/N=C2CCCCC2)NC1=O (centres undefined)	-33%	-10%	-2.0%	-16
CCn1c(=O)c(C(=O)NNC(=O)c2cccc(Cl)c2)c(O)c2ccccc21	18%	7%	-0.3%	.
CCCCn1c(CCC(=O)O)nc2cc(S(=O)(=O)N3CCCC3)ccc21	.	-5%	0.4%	.
Clc1ccc(CN=C2Nc3ccccc3CS2)cc1	-44%	-1%	-0.5%	-4
COc1ccc(NC(=O)CN(C)C(=O)c2cccc(S(=O)(=O)N3CC4(C)CC3CC(C)(C)C4)c2)cc1 (centres undefined)	.	-1%	0.1%	.
CCOc1cccc2sc(N(CCN(CC)CC)C(=O)c3ccc(S(=O)(=O)N4CCCCC4)cc3)nc12	-5%	18%	-0.7%	-10
Cc1ccc2[nH]c(=O)c(CN(CC3CCCO3)C(=S)NCc3ccco3)cc2c1 (centres undefined)	-2%	0%	-4.2%	1
Cn1ccnc1SCCNC(=O)CCc1nnc(CCc2ccccc2)o1	-9%	-1%	-3.3%	4
COc1ccc(CCNC(=O)[C@@H](NC(N)=O)C(C)C)cc1	-1%	-2%	-0.8%	4
CN1/C(=C\C(=O)C[n+]2ccc3ccccc3c2)C(C)(C)c2ccccc21	29%	-14%	-1.3%	-11
CCCCCCCc1ccc(C2NC(=S)NC3=C2C(=O)c2ccccc23)cc1 (centres undefined)	-3%	16%	0.6%	2
Cc1ccc(-c2c[n+](CC(=O)Nc3nc(-c4ccc(F)cc4)cs3)c3n2CCC3)cc1	-2%	4%	0.1%	-3
CCC(C)NC(=O)c1cc2cc3ccc(OC)cc3nc2s1 (centres undefined)	-15%	3%	0.0%	?
O=C(Cc1cccc(NC(=O)C2CCCN(C(=O)C3CCCC3)C2)c1)Nc1ccc(C(=O)N2CCCCC2)cc1 (centres undefined)	.	5%	0.8%	.
Cc1ccc(S(=O)(=O)Cc2cccc(C(=O)N3CCOCC3)c2)cc1	-4%	-15%	-0.8%	0
Cc1cccnc1NC1OC(=O)c2ccccc21 (centres undefined)	0%	-2%	0.5%	3
COc1nnc(-c2ccc(C)c(S(=O)(=O)NCC3CCCO3)c2)c2ccccc12 (centres undefined)	-2%	10%	2.0%	.
Cc1ccccc1CNC1CCCCC1	-13%	-12%	-2.6%	-1
CCOC(=O)c1c(C)nc2sc3c(=O)n(-c4ccc(C(C)=O)cc4)cnc3c2c1-c1ccc(Cl)cc1	-5%	9%	1.4%	1
COc1ccc(C/C(N)=N/OC(=O)Cc2ccccc2)cc1OC	-6%	2%	0.6%	1
O=C(CCCNC(=O)c1ccc(Cl)cc1)OCc1cccc(Br)c1	.	1%	-3.3%	.
O=[N+]([O-])c1ccc2c(c1)S(=O)c1ccccc1-2 (centres undefined)	4%	5%	4.3%	1
O=C1CN(S(=O)(=O)c2ccc(Br)cc2)c2ccccc2N1	-4%	11%	-0.3%	.
Cc1cc(=O)oc2c3c4c(cc12)OCCN4CCC3	-18%	?	?	-7
O=C(O)C1C2C=CC(C2)C1C(=O)NCc1cccnc1 (centres undefined)	-4%	-8%	-1.9%	-7
COC(=O)c1cc(CNC(=O)CC(C)c2ccccc2)ccc1OC (centres undefined)	-3%	25%	8.2%	.
Cc1c(CCC(=O)N2CCC(C(=O)O)(c3ccccc3)CC2)c(=O)oc2cc3oc4c(c3cc12)CCCC4	16%	-7%	2.1%	.
CCOCCCNC(=O)CCNC(=O)c1cc(OC)c(OC)c(OC)c1	-1%	-27%	-3.4%	3
CN1C(=O)/C(=C2\SC(=S)N(CC3CCCO3)C2=O)c2ccccc21 (centres undefined)	-5%	.	.	-9
CC(=O)c1ccc(NC(=O)C2CCCC2)cc1	-21%	-3%	2.5%	.
COc1ccc(C(=O)CC(=O)O)c2c1C=CC(C)(C)O2	0%	-12%	0.0%	1
COc1ccc(CCNC(=O)C(=O)Nc2nccs2)cc1OC	-2%	-4%	1.6%	-1
CN1CCN(S(=O)(=O)c2cccc(C(=O)Nc3nccs3)c2)CC1	7%	7%	4.8%	-9
Cn1c(SCC(=O)NNC(=O)c2ccc(Br)cc2)nnc1-c1cccnc1	0%	-10%	1.5%	1
COc1ccccc1N(CC(=O)NCCN1CCOCC1)S(=O)(=O)c1ccccc1	1%	6%	2.0%	.
CCc1cccc(CC)c1NC(=O)COC(=O)c1ccccc1-c1nc2ccccc2s1	-6%	6%	-4.3%	7
Cc1cc2c(c(SCC(=O)N(C)c3ccccc3)n1)C(=O)OC2	2%	-2%	-1.7%	4
CCCCNC(=O)Cn1c(=O)oc2cc(S(=O)(=O)N3CC(C)CC(C)C3)ccc21 (centres undefined)	0%	-17%	2.8%	0
COc1ccccc1C1=NOC(COC(=O)c2ccc3ccccc3n2)C1 (centres undefined)	-4%	0%	-0.1%	-6
